Vaccinia stage – Vaccinia orthopox stage-specific inhibition; Vaccinia-infected cells, mCherry/Venus stage reporter fluorescence; active compounds read low; some inactives read as strong as hits; activity change (mCherry), % (concentration not given with the values); 89,000 tested, 0.01% active;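 active means mCherry past -33% and 40 or more points under the early reporter, replicates agreeing; inconclusive means past -33% without that gap or agreement; tested in A549 cells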;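 further: scaled between vehicle wells and reference inhibitor wells; 23 nL library stock went into each well; one replicate is shown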
Vaccinia stage Venus – second read-out of Vaccinia stage, no call of its own (marks repeat the call); activity change (Venus), %; measured here: Venus reporter, other viral stage;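 negative = less Venus signal; first of two replicates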
* hit, by the source's call; ? = inconclusive; / = not tested or not shown; & = joins results of further samples.

Below each SMILES: Vaccinia stage, Vaccinia stage Venus
- C[C@H](CO)N1C[C@H](C)[C@@H](CN(C)C)Oc2ncc(C#CC3(O)CCCC3)cc2C1=O
    15.8, 9.1
- COc1ccc(CN(C)C[C@@H]2OCCCC[C@@H](C)Oc3ccc(NC(=O)Nc4ccc(F)cc4)cc3C(=O)N([C@H](C)CO)C[C@H]2C)cc1
    ?, /
- CO[C@H]1CN(C)C(=O)c2cc(NS(=O)(=O)c3ccc(C)cc3)ccc2OC[C@@H](C)N(C)C[C@H]1C
    -3.1, -3.7
- O=C(C[C@@H]1CC[C@H]2[C@@H](COC[C@@H](O)CN2C(=O)Nc2cccc(Cl)c2)O1)N1CCCCC1
    -11.5, -9.0
- CC=Cc1ccc2n(c1=O)C[C@H]1[C@H](CO)[C@@H](C(=O)NCc3ccccn3)N(CC3CC3)[C@@H]21 (mixture of isomers)
    16.4, 14.5
- C[C@H](CO)N1C[C@H](C)[C@H](CN(C)CC2CCCCC2)Oc2c(NC(=O)c3cnccn3)cccc2C1=O
    2.9, -1.2
- C[C@H](CO)N1C[C@H](C)[C@H](CN(C)C(=O)Nc2ccccc2)Oc2ccc(NC(=O)Cn3cnnn3)cc2CC1=O
    26.8, 21.9
- Cc1noc(C)c1NC(=O)N(C)C[C@@H]1Oc2ccc(NS(=O)(=O)c3ccc(Cl)cc3)cc2CC(=O)N([C@H](C)CO)C[C@@H]1C
    14.0, 3.3
- CC(C)NC(=O)N[C@H]1CC[C@@H](CCNS(=O)(=O)c2ccc(Cl)cc2)O[C@@H]1CO
    2.1, -0.4
- Cc1ccccc1S(=O)(=O)N1C[C@@H](O)COC[C@H]2O[C@H](CC(=O)N3CCCCC3)CC[C@@H]21
    12.3, 5.3
- COCC#Cc1cnc2c(c1)C(=O)N([C@H](C)CO)C[C@H](C)[C@H](CN(C)C(=O)Cc1ccncc1)O2
    3.4, -1.8
- CN(C)CC(=O)N1[C@@H]2Cn3c(ccc(-c4ccccc4)c3=O)[C@H]1[C@@H](C(=O)N1CCOCC1)[C@@H]2CO
    2.7, 5.4
- COc1ccc(-c2ccc([C@@H]3[C@@H](CO)N4CCCCN(C(=O)c5ccc(F)cc5)C[C@H]34)cc2)cc1
    -13.6, -15.4
- COc1ccc2c3c(n(C)c2c1)[C@H](CO)N(C(=O)C1CCCCC1)CC31CN(C(=O)Nc2cccc(F)c2)C1
    -25.7, -19.4
- CNC[C@H]1Oc2ccc(NS(=O)(=O)c3c(C)noc3C)cc2C(=O)N([C@H](C)CO)C[C@@H]1C
    20.0, 10.4
- CC(=O)N1CCCCN2[C@H](CO)[C@H](c3ccc(-c4ccncc4)cc3)[C@@H]2C1
    28.1, 20.3
- C/C=C/c1ccc2c(c1)O[C@@H](CN(C)C(=O)c1ccc3c(c1)OCO3)[C@H](C)CN([C@H](C)CO)S2(=O)=O
    3.8, -1.9
- COc1ccc(CN(C)C[C@H]2Oc3ccc(NS(=O)(=O)c4ccc(C)cc4)cc3CC(=O)N([C@@H](C)CO)C[C@@H]2C)cc1
    -18.8, -9.6
- COc1ccc(CN(C)C[C@H]2Oc3ccc(NS(=O)(=O)c4ccc(OC)cc4)cc3C(=O)N([C@@H](C)CO)C[C@@H]2C)cc1
    11.8, 15.0
- O=C(Cc1ccccc1)N[C@H]1CC[C@H](CC(=O)N2CCOCC2)O[C@H]1CO
    -2.3, 0.9

Additional entries.
Below each SMILES: Vaccinia stage, Vaccinia stage Venus
- CN1C(=O)c2cc(NC(=O)C3CCCCC3)ccc2OC[C@@H]2O[C@@H](CC(=O)NCc3ccccc3F)CC[C@H]21
    4.6, -0.5
- C[C@H](CO)N1C[C@H](C)[C@@H](CN(C)C(=O)Nc2ccc(C(F)(F)F)cc2)Oc2ccc(NC(=O)Cn3cnnn3)cc2C1=O
    4.9, -1.1
- C[C@H]1CN([C@@H](C)CO)C(=O)c2cc(NC(=O)Nc3ccc(C(F)(F)F)cc3)ccc2O[C@H]1CN(C)S(=O)(=O)c1cn(C)cn1
    0.5, -7.8
- CC=Cc1ccc2n(c1=O)C[C@@H]1[C@@H](CO)[C@H](C(=O)NC3CCCC3)N[C@H]21 (mixture of isomers)
    0.7, 4.8
- COc1ccccc1S(=O)(=O)N1C[C@@H]2N[C@H](C1)C2c1ccc(-c2ccncc2)cc1 (stereo partly drawn)
    -27.3, -19.8
- C[C@H](CO)N1C[C@H](C)[C@H](CN(C)Cc2ccncc2)Oc2cc(-c3ccccc3F)ccc2S1(=O)=O
    -6.6&-10.4, -7.7&-7.8
- C[C@@H]1CN([C@@H](C)CO)C(=O)Cc2cc(NC(=O)Cc3cn(C)c4ccccc34)ccc2O[C@@H]1CN(C)S(=O)(=O)c1cccs1
    -26.3, -18.6
- C[C@@H]1CN([C@H](C)CO)C(=O)c2cc(NS(=O)(=O)c3cn(C)cn3)ccc2O[C@H]1CN(C)S(=O)(=O)c1ccc(Cl)cc1
    -0.7, 1.5
- C[C@@H]1CN([C@H](C)CO)C(=O)c2cc(NC(=O)Nc3ccc(C(F)(F)F)cc3)ccc2O[C@@H](C)CCCCO[C@H]1CN(C)S(=O)(=O)c1cccs1
    1.8, 8.2
- CC(C)NC(=O)Nc1cccc2c1O[C@H](CN(C)C(=O)NC(C)C)[C@@H](C)CN([C@H](C)CO)C2=O
    8.3, 11.3
- [N-]=[N+]=Nc1ccccc1C[C@]1(C(=O)NCc2ccccc2)COC(c2ccc(OCCCO)cc2)=N1
    -0.3, -2.5
- C[C@H](CO)N1C[C@H](C)[C@H](CN(C)C(=O)Nc2ccc(C(F)(F)F)cc2)Oc2c(NC(=O)C3CCOCC3)cccc2C1=O
    6.8, 11.9
- COCC(=O)Nc1ccc2c(c1)C(=O)N(C)C[C@@H](OC)[C@H](C)CN(Cc1ccccn1)[C@@H](C)CO2
    12.0, 8.7
- C[C@H]1CN([C@@H](C)CO)C(=O)c2cc(NC(=O)c3ccncc3)ccc2O[C@H]1CN(C)C(=O)Nc1ccc2c(c1)OCO2
    36.9, 17.8
- C[C@@H]1CN([C@@H](C)CO)C(=O)c2cc(NS(=O)(=O)c3ccc(Cl)cc3)ccc2O[C@@H](C)CCCCO[C@H]1CN(C)CC1CC1
    -29.4, -23.8
- CCCNC(=O)N1CC2(CCN(CC3CCCCC3)CC2)c2c([nH]c3cc(OC)ccc23)[C@H]1CO
    ?, /
- COc1cccc(CN(C)C[C@@H]2OCc3cn(nn3)CCCC(=O)N([C@H](C)CO)C[C@H]2C)c1
    -0.5, 1.8
- O=C(C[C@H]1CC[C@H](NC(=O)c2cccc(F)c2)[C@@H](CO)O1)NCc1ccc(Oc2ccccc2)cc1
    ?, /
- COc1ccc(C#Cc2ccc([C@H]3[C@@H](CO)N4C(=O)CN(C(=O)c5ccccc5)C[C@H]34)cc2)cc1
    -33.0, -16.3
- C[C@@H]1CN([C@H](C)CO)C(=O)c2cc(NS(=O)(=O)c3cn(C)cn3)ccc2O[C@H]1CN(C)Cc1ccc(C(=O)O)cc1
    4.1, 1.7

The list goes on:
Below each SMILES: Vaccinia stage, Vaccinia stage Venus
- O=C(C[C@@H]1CC[C@@H]2[C@H](COC[C@@H](O)CN2CC2CCOCC2)O1)NCC1CC1
    -2.3, -11.8
- CO[C@H]1CN(C)C(=O)c2ccc(NC(=O)C3CCCC3)cc2OC[C@H](C)N(S(C)(=O)=O)C[C@H]1C
    3.9, 1.4
- C[C@H]1CN([C@@H](C)CO)C(=O)c2cc(NS(=O)(=O)c3ccc(F)cc3)ccc2O[C@H]1CN(C)CC1CC1
    0.9, -18.4
- CC(C)NC(=O)N(C)C[C@@H]1Oc2c(NC(=O)CCCCCC(=O)Nc3ccccc3N)cccc2C(=O)N([C@H](C)CO)C[C@H]1C
    12.5, 14.6
- CCCC#Cc1ccc([C@H]2[C@H]3CN(C(=O)Nc4ccccc4F)CC(=O)N3[C@H]2CO)cc1
    6.8, -2.5
- N#C[C@@H]1[C@H](c2ccccc2C2=CCCCC2)[C@H](CO)N1C(=O)c1cccc(F)c1
    -0.4, 1.0
- C[C@H]1CN([C@@H](C)CO)S(=O)(=O)c2ccc(C3=CCCC3)cc2O[C@H]1CN(C)C(=O)c1ccccn1
    -1.0, -8.3
- C[C@H]1CN([C@@H](C)CO)S(=O)(=O)c2ccc(-c3cccc(C#N)c3)cc2O[C@@H]1CN(C)Cc1cccc(F)c1
    -13.9, -5.0
- CC(C)NC(=O)Nc1ccc2c(c1)CC(=O)N([C@@H](C)CO)C[C@@H](C)[C@H](CN(C)S(=O)(=O)c1ccccc1)O2
    9.7, 2.1
- COc1ccc2c3c([nH]c2c1)[C@H](CO)N(Cc1ccncc1)CC31CN(Cc2ccc(-c3ccccn3)cc2)C1
    -5.5, 1.2
- CC(=O)N(C)C[C@H]1Oc2cc(-c3ccccc3)ccc2S(=O)(=O)N([C@@H](C)CO)C[C@H]1C
    10.2, -8.6
- C[C@@H]1CCCCO[C@@H](CN(C)Cc2ccncc2)[C@H](C)CN([C@H](C)CO)C(=O)c2cc(NC(=O)C3CCCCC3)ccc2O1
    -14.0, -7.4
- COc1ccccc1NC(=O)N1CCCCN2[C@H](CO)[C@@H](c3ccc(-c4cccc(C#N)c4)cc3)[C@H]2C1
    ?, /
- C[C@@H]1CN([C@H](C)CO)C(=O)c2cccc(NS(=O)(=O)c3ccccc3)c2O[C@@H]1CN(C)C(=O)Nc1ccc(F)cc1
    21.5, 11.5
- COc1ccc(CN(C)C[C@@H]2OCCCC[C@H](C)Oc3ccc(NS(=O)(=O)c4ccc(Cl)cc4)cc3C(=O)N([C@@H](C)CO)C[C@H]2C)cc1
    ?, /
- Cc1noc(C)c1S(=O)(=O)Nc1ccc2c(c1)C(=O)N([C@H](C)CO)C[C@@H](C)[C@@H](CN(C)C)O2
    12.0, 6.9
- C[C@@H]1CCCCO[C@@H](CN(C)C(=O)Nc2ccc(F)cc2)[C@H](C)CN([C@H](C)CO)C(=O)c2cc(NC(=O)c3ccncc3)ccc2O1
    16.4, 14.3
- Cc1noc(C)c1S(=O)(=O)Nc1ccc2c(c1)C(=O)N([C@H](C)CO)C[C@@H](C)[C@H](CN(C)Cc1ccccc1)OCCCC[C@@H](C)O2
    -16.7, -22.1
- O=C(Nc1ccccc1)N1CCCCN2[C@@H](CO)[C@@H](c3ccc(C#Cc4ccccc4)cc3)[C@@H]2C1
    ?, /
- CN(C)C(=O)c1cc2c(c(-c3cccc(C4=CCCCC4)c3)n1)[C@@H](CCO)N(S(C)(=O)=O)C2
    -5.7, -4.3

The list continues.
Below each SMILES: Vaccinia stage, Vaccinia stage Venus
- C[C@H](O)C#Cc1ccc2c(c1)O[C@H](CN(C)C(=O)c1ccccc1)[C@H](C)CN([C@H](C)CO)S2(=O)=O
    0.9, 1.4
- CCCC#Cc1ccc2c(c1)O[C@@H](CN(C)C(C)=O)[C@@H](C)CN([C@H](C)CO)S2(=O)=O
    -4.1, -4.5
- CN(C)C(=O)C[C@@H]1CC[C@@H]2[C@@H](COc3ccc(NC(=O)c4ccc(F)cc4)cc3C(=O)N2C)O1
    3.8, 4.8
- CN1CCN(C(=O)C2=C[C@H](c3ccc(Br)cc3)C[C@H](OCc3ccc(CO)cc3)O2)CC1
    -20.4, -17.1
- CO[C@H](CN(C)S(=O)(=O)c1ccccc1)[C@H](C)CN(C(=O)Nc1ccccc1F)[C@@H](C)CO
    8.3, 13.2
- CO[C@@H]1CN(C)C(=O)c2ccc(NC(=O)C3CCC3)cc2OC[C@@H](C)NC[C@@H]1C
    12.2, 9.8
- O=C(C[C@@H]1C[C@@H]2c3cc(NC(=O)C4CCOCC4)ccc3O[C@@H]2[C@@H](CO)O1)NCc1ccc2c(c1)OCO2
    -5.8, 2.1
- C[C@H]1CN([C@@H](C)CO)C(=O)c2cc(NC(=O)Nc3ccc(C(F)(F)F)cc3)ccc2O[C@@H]1CN(C)S(=O)(=O)c1ccc(F)cc1
    -6.4, -2.1
- COc1ccc(S(=O)(=O)Nc2ccc3c(c2)C(=O)N([C@@H](C)CO)C[C@H](C)[C@H](CN(C)S(=O)(=O)c2ccccc2)OCCCC[C@H](C)O3)cc1
    -25.6, -26.8
- C[C@@H]1CN([C@@H](C)CO)C(=O)c2cc(NC(=O)CCCCCC(=O)Nc3ccccc3N)ccc2O[C@@H]1CN(C)C(=O)Nc1ccc2c(c1)OCO2
    22.0, 7.7
- C[C@@H]1CN([C@H](C)CO)C(=O)c2cc(-c3ccccc3F)cnc2O[C@@H]1CN(C)C(=O)C1CC1
    2.5, 4.8
- O=C(Cc1ccccc1)N[C@H]1C=C[C@@H](CC(=O)N2CCCCC2)O[C@H]1CO
    -0.3, 9.5
- CO[C@@H]1CN(C)C(=O)c2ccc(NC(=O)Nc3cccc(Cl)c3)cc2OC[C@H](C)NC[C@@H]1C
    -19.6, -14.7
- COc1ccc(S(=O)(=O)N[C@H]2CC[C@H](CC(=O)NCCc3ccccc3)O[C@H]2CO)cc1
    8.2, 7.6
- COCC(=O)Nc1ccc2c(c1)C(=O)N(C)C[C@@H](OC)[C@@H](C)CN(C(=O)Cc1ccccn1)[C@H](C)CO2
    16.0, 17.6

Entries above with a cyano group:
Below each SMILES: Vaccinia stage, Vaccinia stage Venus
- N#C[C@@H]1[C@H](c2ccccc2C2=CCCCC2)[C@H](CO)N1C(=O)c1cccc(F)c1
    -0.4, 1.0
- C[C@H]1CN([C@@H](C)CO)S(=O)(=O)c2ccc(-c3cccc(C#N)c3)cc2O[C@@H]1CN(C)Cc1cccc(F)c1
    -13.9, -5.0
- COc1ccccc1NC(=O)N1CCCCN2[C@H](CO)[C@@H](c3ccc(-c4cccc(C#N)c4)cc3)[C@H]2C1
    ?, /

Bioassay records deposited in PubChem BioAssay by Broad Institute.

These rows are one share of the data, so the mix of outcomes need not match the whole.
